Kir21 block: Kir2.1 (mouse) channel inhibition; P35561; 310,000 compounds, 0.85% hits; B-score at 10 µM; HEK293-Kir2.1, FluxOR thallium flux fluorescence; hits give low values;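 active means fluorescence ratio B-score at or below minus 3 SD of library scores, with starting-brightness B-score within 2 SD, cut at about -4.2 in these data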;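 further: channel flux triggered by added potassium and thallium sulfate stimulus; B-score of peak minus minimum fluorescence over baseline after thallium stimulus; more negative B-score means stronger Kir2.1 block with less thallium influx; some compounds called inactive have numbers as strong as hits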
Target sequence (P35561 whole entry, looked up): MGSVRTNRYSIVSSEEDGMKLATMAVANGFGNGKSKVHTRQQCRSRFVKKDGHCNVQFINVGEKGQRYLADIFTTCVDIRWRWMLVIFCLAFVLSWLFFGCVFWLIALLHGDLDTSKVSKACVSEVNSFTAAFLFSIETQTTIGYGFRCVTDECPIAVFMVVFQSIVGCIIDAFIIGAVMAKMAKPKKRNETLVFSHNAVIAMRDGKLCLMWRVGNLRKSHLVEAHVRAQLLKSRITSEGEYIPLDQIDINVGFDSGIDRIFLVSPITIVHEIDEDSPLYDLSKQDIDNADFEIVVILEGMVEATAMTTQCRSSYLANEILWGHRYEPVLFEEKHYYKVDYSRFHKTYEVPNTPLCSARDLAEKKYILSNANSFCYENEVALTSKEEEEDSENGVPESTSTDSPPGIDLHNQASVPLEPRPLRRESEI
Numbers without * were called inactive. This is a subset, and most or all hits are left out here.

SMILES	Kir21 block
COc1ccc(/C=N/N(C)C2=NS(=O)(=O)c3ccccc32)cc1OC	1.5
c1ccc(Oc2cccc(NC3=NCCC3)c2)cc1	0.17
Cc1ccccc1CS(=O)(=O)c1ncc(Cl)c(C(=O)Nc2ccc(F)cc2)n1	-1.1
CC(Sc1nc2ccccc2s1)C(=O)Nc1ccc2c(c1)OCO2 (stereo unspecified)	-0.13
O=C(NS(=O)(=O)c1ccccc1)c1cccc(Br)c1	-1.7
COc1ccc(CC(=O)Nc2ccc3nc(C)sc3c2)cc1OC	-0.04
C=CCN(CC=C)C(=O)c1ccccc1NC(=O)c1ccccc1C	-0.09
COc1cc(C(=S)N2CCOCC2)ccc1OC(=O)Cc1ccc(F)cc1	-2.6
CN1CC(c2ccccc2)C(c2ccc(Cl)cc2)=N1 (stereo unspecified)	-1.6
N=C1/C(=C\c2ccc(OC(=O)c3ccc(F)cc3)cc2)C(=O)N=C2SC(N3CCOCC3)=NN12	0.04
CC1OC(OC2C(Oc3c(-c4ccc(O)cc4)oc4cc(O)cc(O)c4c3=O)OC(COC3O[C@@H](C)[C@H](O)[C@@H](O)C3O)C(O)C2O)C(O)C(O)C1O (stereo partly specified)	0.08
Cc1ccc(CNC(=S)NC2CCCCC2)cc1	0.64
CN(CC(=O)N1CCN(c2cccc(Cl)c2)CC1)S(=O)(=O)c1cccs1	1.3
Cc1cc(=O)[nH]c(N/N=C/c2sccc2C)n1	0.41
CC(C)Cn1c(N)c(C(=O)COC(=O)c2cccc(Cl)c2)c(=O)n(C)c1=O	0.03
COC(=O)[C@H](Cc1ccccc1)NC(=O)[C@@H](N)CC(=O)O	-0.98
Cc1occc1-c1nnc(SCC(=O)c2ccc(F)cc2)n1Cc1ccco1	-2.4
Cc1cc(C)nc(NC(=O)c2ccc(Br)cc2)n1	-0.08
COCCN(C(=O)CSc1n[nH]c(-c2ccc(OC)cc2)n1)c1c(N)n(Cc2ccccc2)c(=O)[nH]c1=O	-0.43
Cc1ccc(C(C)C)cc1OCC(=O)NNC(=O)Nc1ccccc1	0.01
CN1C(=O)C(O)(CC(=O)/C=C/C=C/c2ccccc2)c2ccccc21 (stereo unspecified)	0.28
O=C(CN1CCOCC1)n1c2c(c3ccccc31)CCCC2	-1.4
O=C(NC(=S)N1CCN(c2ccccc2)CC1)c1c(F)cccc1F	-2.5
CC(C)(C)CC(=O)Nc1ccc(-c2nnc3n2CCCCC3)cc1	1.1
O=C(N/N=C/c1ccc(Br)s1)c1cccc([N+](=O)[O-])c1	0.41

(continued)
SMILES	Kir21 block
Cc1cccc(NCCC(=O)c2ccc(Br)cc2)c1	-0.57
C[C@@H]1CC=C[C@H]2[C@H]1C(=O)N(Cc1ccccc1)[C@H]2c1ccc2ccccc2c1/C=C/c1ccccc1	1.5
CN(C)c1ccc(NC(=O)c2ccc([N+](=O)[O-])cc2Cl)cc1	-0.16
O=C(CC1(O)C(=O)N(Cc2ccccc2Cl)c2ccccc21)c1ccco1 (stereo unspecified)	1.3
O=C(/C=C/c1ccc([N+](=O)[O-])cc1)NCCSc1ccccc1	0.6
Cn1nnc2cc(NC(=O)N3CCN(c4ccccn4)CC3)ccc21	0.72
COc1ccc(N2C(=O)S[C@@H]3CS(=O)(=O)C[C@@H]32)cc1	-0.63
CC1CC(C)CN(C(=O)C2CCN(S(=O)(=O)c3c(Cl)cccc3Cl)CC2)C1 (stereo unspecified)	-0.07
O=C(CN1C(=O)NC(c2ccccc2)(c2ccccc2)C1=O)Nc1ccc2[nH]c(=O)[nH]c2c1	-0.97
O=C(CCn1c(=S)[nH]c2cc3c(cc2c1=O)OCO3)NCc1ccc(Cl)cc1	0.02
CCOc1ccccc1NC(=O)c1cc(=O)c2ccccc2o1	0.84
Cc1cc(C)n(CC(=O)N/N=C/c2cccc([N+](=O)[O-])c2)n1	0.62
Cc1ccc(-c2nc(CN3CCCCC3c3cccc(F)c3)c(C)o2)o1 (stereo unspecified)	-2.2
O=C(c1ccc(F)cc1)c1ccc(-c2ccc(F)cc2)nc1	0.27
NC(=O)c1nsc(C(=O)N(CC(=O)NCc2ccco2)c2ccccc2F)c1N	0.21
CC(C)CC1CCCCC1OC(=O)CN1CCCCC1 (stereo unspecified)	1.5
COc1ccc(C(=O)NC(C(=O)N2CCN(c3ccccc3O)CC2)C(C)C)cc1 (stereo unspecified)	1.6
Cc1nn(CC(=O)Nc2ccc(S(=O)(=O)N(C)C)cc2)c(C)c1[N+](=O)[O-]	-0.28
CCC(CC)C1C(C#N)=C(N)SC(N)=C1C#N	-0.44
CC(NO)C(C)(C)NO (stereo unspecified)	0.17
CCOc1ccccc1N1CCN(C(=O)CN2C(=O)NC3(CCCC3)C2=O)CC1	1.4
O=C1CN(C(=O)CSc2nc3cc(Cl)ccc3c(=O)n2Cc2ccccc2)c2ccccc2N1	-0.84
Cc1ccc(S(=O)(=O)CC(=O)Nc2c(C)n(C)n(-c3ccccc3)c2=O)cc1	-0.68
CN(C(=O)COc1ccc(-c2nnco2)cc1)C1CCS(=O)(=O)C1 (stereo unspecified)	2.5
Cc1nc(C)c(C(=O)Nc2cccc(C)c2C)s1	-0.5

Some of the entries so far, field by field:
Cc1cc(=O)[nH]c(N/N=C/c2sccc2C)n1
  Kir21 block = 0.41
Cc1ccc(C(C)C)cc1OCC(=O)NNC(=O)Nc1ccccc1
  Kir21 block = 0.01

(list continues)
SMILES	Kir21 block
CC(=O)c1cccc(NC(=O)C2CCN(S(=O)(=O)c3cccs3)CC2)c1	-0.39
Cc1oc(C(=O)Nc2ccc(C(=O)O)cc2)cc1COc1ccccc1	-1.2
S=c1[nH]nc(-c2cccnc2)o1	0.35
CN1CCN(c2ccccc2NC(=S)NC(=O)c2cc3ccccc3o2)CC1	1.5
CC(C)(C)CC(C)(C)NC(=O)c1ccc2snnc2c1	-1.3
CCOC(=O)CN1C(=O)CC(c2ccc([N+](=O)[O-])cc2)C1=O (stereo unspecified)	0.62
O=C(CNc1cccc2ccccc12)N/N=C/c1ccc([N+](=O)[O-])cc1	-0.97
CCCOc1ccc(C(=O)NC(=S)Nc2nc(C)c(C(=O)N(C)C)s2)cc1	1.5
Cc1noc(C)c1COC(=O)Cc1ccc(Br)cc1	-0.1
Nc1c(-c2cccc(Cl)c2)cnn1-c1cccc([N+](=O)[O-])c1	-1.4
CCOC(=O)C1CCN(C(=O)CN2C(=O)CSc3ccc(S(=O)(=O)N4CCOCC4)cc32)CC1	-0.49
Cc1cc(C)c(/C=C2\C(=O)Nc3ccccc32)[nH]1	0.4
CCCC(=O)Nc1cccc(NC(=O)c2ccc3c(c2)OCO3)c1	0.22
CCCNC(=O)C/C(C)=N/NC(=O)C(=O)Nc1ccccn1	0.62
O=C(OCc1nc2ccccc2c(=O)[nH]1)c1cccs1	-1.4
Cc1ccc(NC(=O)c2cc(=O)[nH]c3ccc(S(=O)(=O)N4CCOCC4)cc23)nc1	0.98
CC(C)NC(=S)N(C)C1(c2ccccc2Cl)CCCCC1=O (stereo unspecified)	0.4
CC12CC3(C)CC(C)(C1)CC(C(=O)Nc1nn[nH]n1)(C2)C3	0.49
CC(C)C(=O)Nc1cccc(C(=O)Nc2nnc(C(C)C)s2)c1	-0.08
COC(=O)c1ccccc1OCc1cccc(C)n1	0.01
Cc1ccc(S(=O)(=O)N(CC(=O)N2CCOCC2)C2CCCCC2)cc1	1.4
Cc1cccc(NC(=O)CN2C(=O)c3ccccc3S2(=O)=O)n1	-0.25
Cc1ccc(CN2CCCOCCS2(=O)=O)cc1	-1.2
CC(C)C(NC(=O)CSc1ccc(Cl)cc1)C(C)C	-0.03
CC(=O)c1ccc(N2CCC(C)CC2)c(F)c1	0.24

For convenience, some entries already given:
SMILES	Kir21 block
CCCOc1ccc(C(=O)NC(=S)Nc2nc(C)c(C(=O)N(C)C)s2)cc1	1.5
Cc1noc(C)c1COC(=O)Cc1ccc(Br)cc1	-0.1
Nc1c(-c2cccc(Cl)c2)cnn1-c1cccc([N+](=O)[O-])c1	-1.4
CCOC(=O)C1CCN(C(=O)CN2C(=O)CSc3ccc(S(=O)(=O)N4CCOCC4)cc32)CC1	-0.49
Cc1cc(C)c(/C=C2\C(=O)Nc3ccccc32)[nH]1	0.4
CCCC(=O)Nc1cccc(NC(=O)c2ccc3c(c2)OCO3)c1	0.22
CCCNC(=O)C/C(C)=N/NC(=O)C(=O)Nc1ccccn1	0.62
O=C(OCc1nc2ccccc2c(=O)[nH]1)c1cccs1	-1.4
Cc1ccc(NC(=O)c2cc(=O)[nH]c3ccc(S(=O)(=O)N4CCOCC4)cc23)nc1	0.98
CC(C)NC(=S)N(C)C1(c2ccccc2Cl)CCCCC1=O (stereo unspecified)	0.4
CC12CC3(C)CC(C)(C1)CC(C(=O)Nc1nn[nH]n1)(C2)C3	0.49
CC(C)C(=O)Nc1cccc(C(=O)Nc2nnc(C(C)C)s2)c1	-0.08
COC(=O)c1ccccc1OCc1cccc(C)n1	0.01
Cc1ccc(S(=O)(=O)N(CC(=O)N2CCOCC2)C2CCCCC2)cc1	1.4
Cc1cccc(NC(=O)CN2C(=O)c3ccccc3S2(=O)=O)n1	-0.25
Cc1ccc(CN2CCCOCCS2(=O)=O)cc1	-1.2
CC(C)C(NC(=O)CSc1ccc(Cl)cc1)C(C)C	-0.03
CC(=O)c1ccc(N2CCC(C)CC2)c(F)c1	0.24

(list continues)
SMILES	Kir21 block
CCN1C(=O)CC(c2ccco2)Sc2ccccc21 (stereo unspecified)	-2.5
CSCCC(NC(=O)c1ccc(Cl)cc1)C(=O)NC(C)(C)C (stereo unspecified)	0.61
CCC1(C)Cc2c(sc3nc(SCC(=O)O)[nH]c(=O)c23)CO1 (stereo unspecified)	0.08
CCC(=O)N1CCN(c2nnc(-c3ccccc3)c3ccccc23)CC1	0.04
Cc1nc(-c2cc(-c3nc(-c4cc(C(F)(F)F)cc(C(F)(F)F)c4)no3)no2)cs1	-0.98
Cc1cc(S(=O)(=O)N2CCCOC2CNC(=O)C(=O)NCCc2ccco2)ccc1F (stereo unspecified)	0.67
O=C(Nc1nnc(-c2ccccc2)s1)c1cccc(S(=O)(=O)N2CCOCC2)c1	0.83
O=C(NC(=S)NCC1CCCO1)c1ccccc1 (stereo unspecified)	-0.03
CCn1c(Oc2ccccc2F)nc2c1c(=O)n(C)c(=O)n2C	2.1
CC1(C)Cc2c(sc3c2c(N)nc(=S)n3Cc2ccc(Br)cc2)CO1	1.2
CC(C)C(=O)NC(C)C(c1cccs1)N1CCOCC1 (stereo unspecified)	0.17
O=c1[nH]c(N/N=C/c2cc3c(cc2[N+](=O)[O-])OCO3)nc2ccccc12	1
O=C(CC1CCCC1)NCCc1cn2ccccc2n1	1.3
Cc1ccc(NC(=O)Cn2c(CCC(=O)O)ccc2-c2cccs2)cc1Cl	-1.8
CCn1cc(S(=O)(=O)Nc2ccccc2C(F)(F)F)cn1	1.3
Cc1ccc(-n2nnc(-c3nccn3C)n2)cc1	2.1
CCCCCC(=O)Nc1cccc(C2=NOC3(C2)C[C@@H](C(N)=O)N(C(=O)c2ccc(Cl)cc2)C3)c1 (stereo partly specified)	1.2
COC(=O)c1ccc(COc2ccccc2/C=N/NS(=O)(=O)c2ccccc2)cc1	0.47
Nc1c(C(=O)NCc2ccc3c(c2)OCO3)nnn1Cc1ccc(Br)cc1	2.4
CC(C)c1ccc(NS(=O)(=O)c2ccc(-n3cccn3)cc2)cc1	3.5
CCOc1nc(Nc2ccc(Cl)cc2)nc(OCC)n1	-0.23
O=C(Cc1cccc2ccccc12)Nc1cccnc1	-2.3
O=C(CCNC(=O)c1ccccc1Cl)NCC12CC3CC(CC(C3)C1)C2	0.63
OC1CCN(C(=S)NCCc2ccccc2)CC1	-1.6
COc1cc(CNCC(C)C)c(Br)cc1OCC(=O)NCc1ccccc1	-0.21

Next compounds follow.
SMILES	Kir21 block
O=C(N/N=C\c1c(F)c(F)c(F)c(F)c1F)c1ccc(-c2ccccc2)cc1	0.28
Oc1ccc(C[C@@H]2CNCCN2CCCCC2CCCCC2)cc1	-1.5
COCCCNc1nc2nonc2nc1N1CCN2CCCC2C1 (stereo unspecified)	1.1
CCN(CC)CCNC(=O)Cn1c(=O)c2cccn2c2ccc(F)cc21	-0.31
Cc1nc(SCc2ccccc2F)c2oc3ccccc3c2n1	-1.1
COC(=O)C1=C(CCc2ccccc2)NC(=O)NC1c1ccc([N+](=O)[O-])cc1 (stereo unspecified)	-1.2
COc1ccc(Nc2nnc(C)c3ccccc23)cc1C(N)=O	1.6
CCN(C(=O)Cn1cnc2ccccc2c1=O)C1CCS(=O)(=O)C1 (stereo unspecified)	0.01
COCCNC(=O)c1cc2cc(Br)cc(Br)c2oc1=O	0.7
COc1ccc2[nH]c(C(=O)O)c(NS(=O)(=O)c3ccc(F)cc3)c2c1	0.53
C/C(=N\NC(=O)c1ccc(Cl)c(Cl)c1)c1ccccn1	-0.34
O=C(Nc1ccc(S(=O)(=O)N2CCOCC2)cc1)C1COc2ccccc2O1 (stereo unspecified)	0.22
O=C(NC1CCSc2ccccc21)c1cc(S(=O)(=O)N2CCOCC2)ccc1F (stereo unspecified)	0.72
COc1ccc(NC(=O)c2ccc(COc3ccccc3OC)o2)cc1OC	-2.5
COC(=O)c1cc(COC(=O)c2cccnc2SC)oc1C	0.31
Cc1ccc(S(=O)(=O)NC(CC(C)C)C(=O)Nc2nccs2)cc1 (stereo unspecified)	-0.1
O=C(c1ccco1)c1n[nH]nc1-c1ccccc1	-1.8
COc1cc(C(=S)N2CCOCC2)cc(OC)c1OS(=O)(=O)c1ccc(C)cc1	-0.25
O=C1/C(=C\c2ccc3c(c2)OCO3)CCC/C1=C/c1ccc2c(c1)OCO2	-1.8
O=C(CSc1nc2scc(-c3ccco3)c2c(=O)n1-c1ccccc1)NCC1CCCO1 (stereo unspecified)	-0.19
CCn1c(=O)n(CC(=O)N(C)Cc2ccccc2)c(=O)c2ccccc21	-0.01
CCCn1c(=N)n(CC(=O)c2ccc(Cl)cc2)c2ccccc21	-1.3
CNc1nc2cc([N+](=O)[O-])c([N+](=O)[O-])cc2nc1NC	0.12
O=C(NCc1csc(-c2cccs2)n1)c1cccc(Cl)c1	0.7
COc1ccccc1-c1cc(C(=O)NCc2ccco2)no1	-0.02
O=C(COc1ccc(Cl)cc1Cl)Nc1nc2n(n1)C(c1ccccc1)CC(=O)N2 (stereo unspecified)	0.04
COc1ccc(C2N3CC4(C)CN2CC(C)(C3)C4O)cc1OC (stereo unspecified)	-1.5

Bioassay records as filed in PubChem.
